# Compound activity as filed in PubChem BioAssay.
# TRPML1 ag – qHTS for Agonists of the Human Mucolipin Transient Receptor Potential 1 (TRPML1). Mucolipin-1 (Homo sapiens), Q9GZU1. TRPML1-expressing cells, Ca2+ dye fluorescence, FDSS; host cell line not named in the record; reference of the full effect not given here. activation, % (test concentration not listed). 410,000 compounds, 0.12% hits. AID 624414, 2012; in the data active = activation above about 50%; inconclusive = about 30% to 50%; inactive = below about 30%; also: 0% is about no effect; the text of the record puts the active cut at 80%
# Target sequence (Q9GZU1 whole entry, looked up): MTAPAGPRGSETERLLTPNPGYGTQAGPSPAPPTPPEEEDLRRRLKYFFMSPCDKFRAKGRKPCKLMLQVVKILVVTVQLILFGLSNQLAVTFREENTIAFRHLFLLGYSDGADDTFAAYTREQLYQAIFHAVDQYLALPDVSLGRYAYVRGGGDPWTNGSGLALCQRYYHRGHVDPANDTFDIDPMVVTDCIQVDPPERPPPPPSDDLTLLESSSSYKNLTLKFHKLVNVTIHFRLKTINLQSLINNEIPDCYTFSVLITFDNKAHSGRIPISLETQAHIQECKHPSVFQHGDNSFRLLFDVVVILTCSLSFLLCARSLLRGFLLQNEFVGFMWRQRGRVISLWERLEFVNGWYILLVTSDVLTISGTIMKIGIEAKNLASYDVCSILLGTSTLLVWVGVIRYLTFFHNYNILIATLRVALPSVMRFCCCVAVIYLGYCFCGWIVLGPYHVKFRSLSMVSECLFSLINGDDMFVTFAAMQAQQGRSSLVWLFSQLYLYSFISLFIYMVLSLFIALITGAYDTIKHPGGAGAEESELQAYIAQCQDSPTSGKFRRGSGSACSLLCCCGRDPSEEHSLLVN
#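 Kinetic FDSS Ca2+ read in Tet-induced TRPML1-DL cells (ABD Ca8 dye plus quencher, 45-90 min RT loading): baseline, then compound, then 110 s agonist window; EC80 agonist 54-4 at 4uM final added afterwards for a 110 s antagonist window.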
# gsp antagonist – qHTS for Antagonists of gsp, the Etiologic Mutation Responsible for Fibrous Dysplasia/McCune-Albright Syndrome: qHTS; gsp-mutant cells, cAMP HTRF, 30 min; control for the full effect not named in the record; 340,000 compounds, 0.4% hits; Potency, µM (highest dose often 76.9 µM), inactives show at the highest dose activity change, negative = inhibition, most hits filed as inhibitors; active = falling curve of any shape with a large fitted effect; inconclusive = falling curve, mostly with a smaller effect; inactive = flat or rising curve; cell line not stated here;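 also: intracellular cAMP measured with PDE inhibitor Ro 20-1724 present during compound exposure; potency is read from the fitted curve at half-maximal effect; % is scaled to controls: 0 for no effect and ±100 for the full control effect; nearly all actives have a fitted effect of over 65% in size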
#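 HTRF cAMP measurement after 30 min RT detection following 30 min, 37C compound treatment alongside […] (added as 300 uM solution) in G418-selected cells seeded at 2000/well and grown 16–24 h.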
# TRPML1 inh – qHTS for Inhibitors of the Human Mucolipin Transient Receptor Potential 1 (TRPML1). Mucolipin-1 (Homo sapiens), Q9GZU1. TRPML1-inducible cells, Ca2+ dye fluorescence, FDSS; hits give low values; inhibition of EC80 agonist-evoked calcium signal. activity change, negative = inhibition, % (no concentration beside the values). 390,000 compounds, 0.02% hits; in the data active means activity change below about -50%; inconclusive means about -30% to -50%; inactive means above about -30%;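 also: stimulus is agonist 54-4 at its EC80 concentration; % is scaled to controls: 0 for no effect and ±100 for the full control effect; compound concentration not given in the record; the text of the record puts the active cut at -80%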
#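 TRPML1-DL cells, Tet-induced overnight (~16 h, 37 °C) at 1,500 cells/well, were loaded with Ca8 no-wash dye plus quencher for 45-90 min at room temperature. Compounds were pinned during FDSS kinetic reading; agonist 54-4 at EC80 (4 uM final) then added.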
# gsp ag – qHTS for Agonist of gsp, the Etiologic Mutation Responsible for Fibrous Dysplasia/McCune-Albright Syndrome: qHTS; gsp mutant cells, cAMP HTRF, 30 min; control for the full effect not named in the record; 340,000 compounds, 0.13% hits; Potency, µM (series often up to 76.9 µM), without a hit: top-dose activation (cAMP increase), actives largely listed as activators; active = well fitted activation curve with a large enough effect; inconclusive = small, poorly fitted or top-dose-only effect, or another doubt; inactive = no such curve, though single readings can be large or run the other way; cell line not stated here;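 also: phosphodiesterase inhibitor Ro 20-1724 added with compounds to block cAMP breakdown; potency is read from the fitted curve at half-maximal effect; nearly all actives have a fitted effect of over 60% in size; about a fifth of the inactives were tested at one dose only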
#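 Cells stably selected in G418 were plated at 2000/well, grown 16-24 hr, then given compounds in DMSO with the PDE inhibitor […] (300 uM solution added) for 30 min at 37C; cAMP was read by HTRF.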
# ClpP mod – qHTS Assay for Activators of ClpP; Potency, µM (top dose mostly 57.5 µM), for inactives: at the highest dose activity change, negative = active; 340,000 compounds, 1.9% hits; AID 651965, 2013; purified B. subtilis ClpP, FRET peptide cleavage, 20 min; active = well fitted falling curve with a large enough effect; inconclusive = small, poorly fitted or top-dose-only effect; inactive = no such curve, though single readings can be large or run the other way; also: potency is read from the fitted curve at half-maximal effect; the source files actives as falling curves though it sought activators and does not explain the sign; nearly all actives have a fitted effect of over 65% in size; many hits overshoot -100%
# Target sequence (P80244 whole entry, looked up): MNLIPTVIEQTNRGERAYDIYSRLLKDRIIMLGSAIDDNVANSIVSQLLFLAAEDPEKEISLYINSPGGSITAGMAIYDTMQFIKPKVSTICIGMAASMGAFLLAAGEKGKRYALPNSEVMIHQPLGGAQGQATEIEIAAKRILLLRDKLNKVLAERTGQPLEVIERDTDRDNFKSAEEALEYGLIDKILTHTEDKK
#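 FRET quenching reversal measured ClpP activation: 10 microg/mL B. subtilis ClpP at pH 8 with the FRET-FV decapeptide, read at 430 nm after 320 nm excitation. The 20-min minus 0-min signal was scaled between DMSO/no-enzyme wells and ADEP (5.8 microM final).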
# Menin-MLL FL inh – qHTS Assay for Inhibitors Targeting the Menin-MLL Interaction in MLL Related Leukemias: Competition With Fluorescein Labeled MLL-derived Peptide; Fluorescence polarization, fluorescein-MLL peptide displacement from menin; FP activity change, % at 61.4 µM; 290,000 tested, under 10 active; AID 1766, 2009; inconclusive = falling polarisation curve, or a change in total fluorescence; inactive = total fluorescence flat and polarisation flat or rising; no compound was filed as active; the % refers to the polarisation; negative = inhibition;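 also: % of control where 0% means no effect; inhibitors lower the polarisation; unlabelled MLL peptide was the positive control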
# * marks the source's active call; other numbers are inactive results; ? = inconclusive; . = no result given; & = joins results of further samples; [ ] = remark or other dose.
Structure,TRPML1 ag,gsp antagonist,TRPML1 inh,gsp ag,ClpP mod,Menin-MLL FL inh
Cc1ccc(/C=N/NC(=O)CNC(=O)c2ccc(S(=O)(=O)N(C)C)cc2)o1,-0.2,0%,-12,-8%,-0.7%,4.9
CC(=O)Nc1cccc(OCCCOc2cccc([N+](=O)[O-])c2)c1,0.9,?,9,15%,-1.3%,.
Cc1cccc2sc(NNC(=O)C3COc4ccccc4O3)nc12 (stereo not drawn),-0.8,1%,-10,-14%,-1.3%,3.8
CCN1CCN(c2c(/C=C3\SC(=S)N(Cc4ccco4)C3=O)c(C)c(C#N)c(=O)n2C)CC1,?,-16%,2,-2%,.,?
Nn1c(SCc2cccc(Cl)c2)nnc1-c1ccncc1,0.3,-19%,7,-1%[15.4 µM],.,6.7
CN(C)c1ccc(C2C3C(=O)NC(=O)C3ON2c2ccc(Cl)cc2)cc1 (stereo not drawn),0.4,-25%,1,-29%,1.0%,-0.2
COc1ccc(CCNC(=O)c2cccc(NC(=O)CC3SC(N4CCCCC4)=NC3=O)c2)cc1OC (stereo not drawn),0.9,4%,4,6%,0.4%,0.3
O=C(CCS(=O)(=O)c1cccc2nonc12)N1CCOCC1,0.4,18%,-20,0%,0.4%,-0.3
CCOC(=O)C1CSC(CC(=O)Nc2ccc(Cl)c(Cl)c2)C(=O)N1 (stereo not drawn),0.6,-5%,6,-18%,-0.4%,-0.5
Cn1c(=O)c2c(O)c(Cc3ccccc3)c(=O)n(C)c2n(C)c1=O,0.1,0%,13,-21%[15.4 µM],.,5.4
Cc1ccccc1C(=O)Nc1cccc(C(=O)N/N=C/c2ccccn2)c1,1.4,-6%,11,9%,.,-3.0
Cc1c(C(=O)N(C)CC(=O)Nc2cccc(F)c2)oc2c(Cl)cccc12,0.5,-12%,-2,0%[15.4 µM],-2.7%,.
CCOC(=O)C1CCN(S(=O)(=O)c2ccc(Cl)cc2)CC1,1.5,-1%,9,3%,.,-4.0
Cc1cccc(Cl)c1OCCN1CCCC1,0.7,9%,12,-4%[15.4 µM],-0.6%,0.8
Cn1nc(C(=O)Nc2ccc3c(c2)OCCO3)cc1C(=O)O,-0.3,11%,3,-9%[15.4 µM],.,5.1
COc1cc(/C=C(\C#N)C(=O)NCC2CCCO2)ccc1O (stereo not drawn),-0.2&-0.1,-26%,-1&-5,21%[15.4 µM],2.7%&-5.4%,5.9
O=C(NC(=O)c1ccccc1O)c1ccc2c(c1)CCO2,1.8,-19%,-5,-4%[15.4 µM],.,-0.3
COc1ccccc1N1CCN(S(=O)(=O)CCNC(=O)c2cccc(F)c2)CC1,0.9,-5%,-1,-79%[inhibitor],-2.8%,.
CCCC1=Nc2cc(C(=O)NCCN3CCOCC3)ccc2Sc2ccc(C)cc21,0.1,4%,3,-17%,1.8%,-1.3
Cc1cccc(Nc2nc(N)c(C#N)c(CC#N)c2C#N)c1,0.7,20%,-2,4%[15.4 µM],2.0%,16
Cc1ccc(Cl)cc1N1CCN(C(=O)c2cn(C)c3ccc(S(=O)(=O)N(C)C4CCCCC4)cc3c2=O)CC1,-0.7,.,-10,.,-1.2%,.
CC(=O)Nc1ccc2nc(-c3ccccn3)[nH]c2c1,-0.6,3%,10,18%,11µM*,-1.7
O=c1ccn(Cc2ccccc2)c2ccccc12,-0.3,6%,-7,.,-2.7%,2.3
O=C(NCc1ccco1)C1CCCN(S(=O)(=O)c2cnc[nH]2)C1 (stereo not drawn),0.3,-1%,-10,0%,-1.6%,1.9
CC1C(=O)NN=C1C(=O)N/N=C\C(Br)=C\c1ccccc1 (stereo not drawn),0.0,-17%,7,3%,.,-0.3
COCc1nc(-c2ccc(-c3ccc(OC)cc3)nc2OC)no1,0.9,-14%,40,1%,4.8%,-0.2
COc1ccccc1Nc1nn2c(=O)c3ccc(C(=O)N4CCCCC4)cc3nc2s1,0.6&-0.1,-9%,14&-6,-2%,-10%,-6.6
CC(C)C(NC(=O)OCc1ccccc1)C(=O)NCC(=O)OC(C)(C)C (stereo not drawn),0.1,0%,-2,-4%,1.5%,3.0
CCCCn1cc(S(=O)(=O)c2ccc(OCC)cc2)c(=O)c2cc(OC)c(OC)cc21,-1.1,.,2,.,-8.9%,.
CCCCN(C(=O)c1ccccc1OCc1ccc(F)cc1)c1c(N)n(CC(C)C)c(=O)[nH]c1=O,-0.1,0%,10,13%[15.4 µM],-2.8%,-1.6
CCOC(=O)c1sc2ncnc(N3CCN(CC)CC3)c2c1C,-0.8,4%,0,-1%[15.4 µM],.,0.3
COc1ccc(C(=O)c2ccc(OC)c3cccc(O)c23)cc1OC,-0.5,0%,-10,-4%,0.1%,2.0
CNC(=O)n1cc(C)c(-c2cccs2)n1,-0.6,13%,-3,7%[15.4 µM],-1.0%,2.3
O=S(=O)(c1ccc(N2CCCCCC2)nc1)N1CCCC1,0.1,-2%,-9,-20%,.,1.3
Cc1cccc(N(CC(=O)N2CCCC2)S(C)(=O)=O)c1C,-0.3,.,14,-125%[inhibitor],0.8%,.
CC(=O)NCCc1nc2ccccc2n1CCCCOc1ccc(Cl)cc1,1.3,.,11,.,1.2%,.
Cc1ccc(NC(=S)N=Nc2c(O)n(C)c3ccc(S(=O)(=O)N4CCOCC4)cc23)cc1,-0.1,-8%,-3,?,-1.8%,2.6
Cc1ccc(C)c(NC(=O)CN(C)C(=O)Cn2c(=O)oc3ccccc32)c1,0.0,-4%,17,-30%,-2.4%,.
Cc1ccc(C(=O)Nc2ccc(C(=O)O)cc2)cc1S(=O)(=O)N1CCC(C)CC1,0.2,.,-1,.,-23%,.
Cc1ccccc1NC(=O)N1c2ccccc2CC1C (stereo not drawn),6.9,-1%,6,-8%,-0.5%,1.4
COc1cccc(N2C(=O)CC(N3CCc4ccccc43)C2=O)c1 (stereo not drawn),-1.2,1%,7,-12%,2.2%,-2.3
COc1ccc(-c2cc(C)no2)cc1S(=O)(=O)Nc1c(C)cc(C)cc1C,0.7,.,60,.,0.4%,.
Cc1ccc(-n2c(SCC(=O)N3CCOCC3)nnc2-c2ccncc2)cc1,0.9,-8%,1,-17%,-7.3%,0.4
O=C(CCC(=O)c1cccs1)OCc1nc2ccccc2s1,0.4,4%,-14,?,1.0%,-0.1
NC(=O)NCCCC(=O)O,0.4,9%,-8,-4%,1.1%,.
CN(CC(=O)Nc1ccccc1Br)C(=O)c1ccc(COc2ccccc2)cc1,-0.4,-9%,-25,-3%[15.4 µM],1.3%,.
COc1ccccc1N1CC(C(=O)Nc2nnc(SCC(=O)N3CCOCC3)s2)CC1=O (stereo not drawn),-0.4,12%,10,23%,2.1%,.
CN(C(=O)CSc1nnnn1-c1ccccc1)C1CCS(=O)(=O)C1 (stereo not drawn),0.1,8%,4,-12%[15.4 µM],.,0.1
COc1ccc(CNc2ncnc3cc(OC)c(OC)cc23)cc1OC,-0.6,-6%,-7,17%[15.4 µM],-0.9%,-2.5
O=C(CC1SC(N2CCCC2)=NC1=O)Nc1ccc(C(=O)N2CCCC(C(F)(F)F)C2)cc1 (stereo not drawn),0.3,11%,-16,-4%[15.4 µM],-0.8%,.
NS(=O)(=O)c1ccc(CCNC(=O)c2ccc(C(=O)c3ccccc3)cc2)cc1,-0.1,-4%,-12,19%[15.4 µM],.,3.1
CCOc1ccc(NC(=O)c2cccc3c2C(=O)N(CCOC)C3)cc1,0.3,-5%,11,1%,-1.1%,-0.5
COc1ccc(NC(=O)CCN2C(=O)C3C4CCC(C4)C3C2=O)cc1 (stereo not drawn),1.3,10%,3,33%,0.1%,7.5
O=Cc1ccccc1OCc1nnsc1Cl,-0.1,7%,-12,?,.,2.6
O=C(NC1(C(F)(F)F)C(=O)Nc2c1c(=O)[nH]c(=O)n2Cc1ccco1)C1CCCCC1 (stereo not drawn),5.9,-2%,9,2%,1.3%,1.8
O=C(c1n[nH]c2ccccc12)N1CCN(S(=O)(=O)c2ccc3ccccc3c2)CC1,0.4,-25%,-5,0%,-9.3%,1.9
COc1cc2cnc(-c3ccccc3)c(C(=O)c3ccc(F)cc3)c2cc1OC,2.5,1%,15,0%,-13%,.
O=C(Nc1ccc(Cl)c(Cl)c1)Nc1cc(C(=O)N2CCOCC2)ccc1N1CCCCC1,0.3,-7%,6,-7%,-1.2%,.
CCN1CCC(O)(C#Cc2ccccc2)CC1,-0.3,10%,-1,0%,.,-1.2
CC(=O)c1ccc(-c2cc(C3C4C=CCC(C)C4C(=O)N3Cc3ccccc3)ccc2F)cc1 (stereo not drawn),1.4,.,66,.,.,1.4

# (cont.)
Structure,TRPML1 ag,gsp antagonist,TRPML1 inh,gsp ag,ClpP mod,Menin-MLL FL inh
CCC(CC)C(=O)Nc1nnc(SCC(=O)N2CCN(c3ccccc3OC)CC2)s1,-1.2,-20%,8,-5%,0.1%,1.5
Cc1ccccc1Nc1c(-c2cccnc2)nc2cccc(C)n12,-0.1&0.2,-10%,12&-1,-21%,-2.2%&-9.0%,1.1
CCCN(Cc1ccccc1)C(=S)Nc1ccc(SC(F)F)cc1,2.8,2%,36,15%[15.4 µM],.,-4.0
CC(=O)c1ccc(NC(=O)Cn2cc(S(=O)(=O)Cc3ccccc3Cl)c3ccccc32)cc1,4.3,.,43,.,-6.9%,.
COc1ccc(/C=C/C(=O)c2ccc(NC(=O)c3cccs3)cc2)cc1OC,-0.8,3%,-4,-22%,-1.1%,3.1
CCOC(=O)c1c[nH]n(-c2ccccc2)c1=O,-0.2,4%,2,8%,.,2.0
COCCNC(=O)c1ccc(C)c(NC(=O)C2=C(C)OCCS2)c1,-0.7,6%,-2,7%[15.4 µM],0.3%,-6.7
COc1cccc(NC(=O)C/C(C)=N/NC(=O)C2CCCCC2)c1,-0.3,10%,13,-10%[15.4 µM],.,-2.3
CCCN(CCC)c1nc(N(CCC)CCC)[nH]c(=O)n1,1.0,3%,-3,0%[15.4 µM],.,-2.5
Cc1ccc(CC(=O)N(Cc2nc(-c3ccc(C)cc3)no2)C(C)C)cc1,0.3,.,-14,.,-0.3%,.
CCOC(=O)c1ccc2nc(C)cc(Nc3cccc(C(=O)O)c3)c2c1,-0.3,.,-3,.,-13%,5.7
